TRHR agonist: TRH receptor (human) agonism; AID 493084; TRHR cells, calcium flux fluo-8, FDSS agonist mode; activation, % at 2 µM; 0.18% of 360,000 active; in the data active = activation above about 30%; note: 0% is about no effect
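TRHR-expressing cells loaded with fluo-8 calcium dye; 23 nL library compound pin-transferred, kinetic FDSS fluorescence (Ex 480/Em 530) recorded about 180 s for agonist-induced calcium release, before a 10 nM TRH EC20 addition for potentiator mode.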
TRHR PAM: allosterically enhances the human TRH receptor. P34981. TRHR cells, fluo-8 calcium fluorescence, EC20 TRH enhancement. enhancement, % at 2 µM. 0.66% of 360,000 active. AID 493056; in the data active = enhancement above about 30%; note: 0% is about no effect
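TRHR-expressing cells loaded with fluo-8 calcium dye were read kinetically (ex 480/em 530) during compound addition, then stimulated with an EC20 of TRH (10 nM final). Enhancement of the Gq-mediated intracellular calcium response was scored.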
RXFP1 antagonist: RXFP1 (human) relaxin receptor antagonism; 0.59% of 350,000 active; HEK293-RXFP1, relaxin-stimulated cAMP HTRF, 30 min; hits give low values; activity change, negative = inhibition, % at 57.5 µM;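 active = activity change of -60% or lower, but not beyond a set lower limit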; note: % is set by controls: 0 for no effect and ±100 for the full control effect
Active calls of the source: *; . = no result given; & = joins results of further samples. The list is partial (hit frequency here may not be typical).

Every second line gives: TRHR agonist	TRHR PAM	RXFP1 antagonist
[1] Clc1ccccc1OCCCCN1CCNCC1
  0.7	3	3
[2] CC(=O)N1CCN(C(c2ccccc2)c2ccccc2)CC1
  0.4	15	-1
[3] O=C(CCCN1CCN(c2ccccn2)CC1)c1ccc(F)cc1
  -0.7	-5	31
[4] CN(C)CCCN1c2ccccc2Sc2ccc(Cl)cc21
  0.8&0.9	-4&7	-22
[5] CC(C)NC[C@H](O)c1ccc(O)c(O)c1
  0.6	13	.
[6] CCN(Cc1ccncc1)C(=O)C(CO)c1ccccc1 (stereo not given)
  0.4	5	31
[7] CN1CCc2cccc3c2[C@H]1Cc1ccc(O)c(O)c1-3
  3.0&2.4	-7&-12	-38
[8] CNCCCC12CCC(c3ccccc31)c1ccccc12
  1.7&3.0&1.5&1.7	-7&4&2&-2	-28&-35
[9] CN(C)CCOC(c1ccccc1)c1ccccc1 (tested in a mixture with another compound)
  -0.1	-6	.

Entries from the list above that have a Cl atom:
Every second line gives: TRHR agonist	TRHR PAM	RXFP1 antagonist
[1] Clc1ccccc1OCCCCN1CCNCC1
  0.7	3	3
[4] CN(C)CCCN1c2ccccc2Sc2ccc(Cl)cc21
  0.8&0.9	-4&7	-22

From compound 1 up to 3, as listed above:
Every second line gives: TRHR agonist	TRHR PAM	RXFP1 antagonist
[1] Clc1ccccc1OCCCCN1CCNCC1
  0.7	3	3
[2] CC(=O)N1CCN(C(c2ccccc2)c2ccccc2)CC1
  0.4	15	-1
[3] O=C(CCCN1CCN(c2ccccn2)CC1)c1ccc(F)cc1
  -0.7	-5	31
